High-throughput results from PubChem BioAssay.
KCNQ2 block: KCNQ2 channel blockers in CHO-K1 cells – cell-based, FluxOR thallium flux, B-score, primary screen (AID 2156); O88943; 20 min; hits give low values; only compounds with negative scores are shown here; some inactives read as strong as hits; B-score at 10 µM; 310,000 tested, 1.1% active;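 active means fluorescence ratio B-score at most minus 3 library SDs, with starting brightness B-score within 2 library SDs, cut at about -5.5 in these data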
Target sequence (O88943 whole entry, looked up): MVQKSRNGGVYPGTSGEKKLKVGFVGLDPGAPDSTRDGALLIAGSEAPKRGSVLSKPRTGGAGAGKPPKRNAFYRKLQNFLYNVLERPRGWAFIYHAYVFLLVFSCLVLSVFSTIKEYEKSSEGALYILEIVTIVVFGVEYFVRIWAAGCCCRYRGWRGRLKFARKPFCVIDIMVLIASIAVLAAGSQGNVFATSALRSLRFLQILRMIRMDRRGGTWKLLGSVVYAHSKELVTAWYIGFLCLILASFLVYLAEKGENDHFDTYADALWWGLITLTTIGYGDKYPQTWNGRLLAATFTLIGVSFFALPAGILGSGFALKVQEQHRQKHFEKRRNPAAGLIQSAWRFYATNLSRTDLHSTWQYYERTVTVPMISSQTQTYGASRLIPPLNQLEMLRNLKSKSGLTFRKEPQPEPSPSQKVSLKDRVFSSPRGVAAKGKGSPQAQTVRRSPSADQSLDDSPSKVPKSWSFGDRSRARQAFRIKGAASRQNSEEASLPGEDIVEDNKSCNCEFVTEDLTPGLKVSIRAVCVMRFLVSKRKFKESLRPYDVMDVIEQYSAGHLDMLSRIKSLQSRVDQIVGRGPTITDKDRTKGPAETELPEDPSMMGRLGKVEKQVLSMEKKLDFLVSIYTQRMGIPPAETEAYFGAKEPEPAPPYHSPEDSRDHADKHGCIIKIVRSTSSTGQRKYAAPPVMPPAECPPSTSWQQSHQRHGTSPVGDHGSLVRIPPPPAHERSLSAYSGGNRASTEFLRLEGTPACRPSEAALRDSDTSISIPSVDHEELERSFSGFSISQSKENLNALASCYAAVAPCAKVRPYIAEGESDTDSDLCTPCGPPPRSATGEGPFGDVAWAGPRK
KCNQ2 block baseline: second read-out of KCNQ2 block, no call of its own (marks repeat the call); B-score; measured here: initial fluorescence intensity artifact check;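 brightness before thallium and not channel activity; 0 = typical well and far values either way flag optical interference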
Starred values were filed as active, the others as inactive; i = inactive. Not all compounds are listed (hit frequency here may not be typical).

Molecule,KCNQ2 block,KCNQ2 block baseline
NC(=O)c1cc(C(=O)Cc2ccccc2)c[nH]1,i,0.98
CC1CCN(C(=O)c2ccc(SCc3ccccc3F)c([N+](=O)[O-])c2)CC1,i,1.79
COc1cc(OC)cc(C(=O)Nc2c(C)nn(-c3ccccc3)c2C)c1,i,0.37
COc1cc(C(=S)N2CCN(C(c3ccccc3)c3ccccc3)CC2)cc(OC)c1O,i,-0.51
CN(C)C(=O)C1(c2ccccc2)CCN(S(=O)(=O)c2ccccc2)CC1,i,-0.68
COc1ccccc1N1CCN(S(=O)(=O)c2ccc3c(c2)NC(=O)CS3)CC1,i,1.01
COc1cc(C(=O)N(C)CCOc2ccccc2)ccc1OCC(=O)Nc1cccc(C(F)(F)F)c1,-6.66*,0.25*
COc1ccc(NC(=O)CN2C(=O)NC3(CCCC3)C2=O)c(OC)c1,i,-0.11
Cn1c(=O)c2c(nc(Oc3ccc4c(c3)OCO4)n2Cc2ccc(F)cc2)n(C)c1=O,i,0.2
CCN(CC1CCCO1)C(=O)c1cc(COc2ccccc2SC)on1 (configuration not stated),i,1.84
COc1ccc(OC)c(C2CC(=O)C3=C(C2)NC(=O)CC3c2ccc(O)c(OC)c2)c1 (configuration not stated),i,-0.27
CCOc1ccccc1OCC(=O)Nc1ccc(Cl)cc1Cl,i,-1.03
Cc1c(NC(=O)c2cc(-c3ccc(F)cc3)on2)c(=O)n(-c2ccccc2)n1C,i,0.77
O=S(=O)(NCc1ccccc1)c1ccc(S(=O)(=O)N(Cc2ccccn2)C2CCCC2)cc1,i,-1.67
COc1cccc(-c2nnc(SCC(=O)Nc3ccc(S(N)(=O)=O)cc3)n2C)c1,i,-0.82
O=C(c1ccco1)N1CCN=C1SCc1ccc(F)cc1,i,-0.07
CN(C)/C=C1\Cc2ccccc2C1=O,i,1.19
O=C(NCC(=O)N1CCN(Cc2ccccc2)CC1)c1ccc(Br)o1,i,2.14
Cc1ccc(SC[C@H](Cc2ccccc2)N2CCN(CC(C)C)CCC2=O)cc1,i,2.06
CCOC(=O)c1cc2c(=O)n3cccc(C)c3nc2n(Cc2ccco2)c1=NC(=O)c1ccccc1,i,3.74
CC(=O)N1CCc2c(sc(NC(=O)C3CCCN3S(=O)(=O)c3cccs3)c2C(N)=O)C1 (configuration not stated),i,3.29
CC1=CC2=NC(=O)/C(=C\c3cc(C)n(-c4cccc(Cl)c4)c3C)C(=N)N2O1,i,-0.5
CCCCC1NC(C(=O)O)CS1 (configuration not stated),i,1.47
COC(=O)C(CC(C)C)NC(=O)c1ccc(F)cc1 (configuration not stated),i,0.17
COc1cc(/C=N/NC2=NS(=O)(=O)c3ccccc32)ccc1OC(C)=O,i,-1.78
COc1ccc(NC2=Nc3ccccc3CC2)cc1,i,-0.39
CN(C)S(=O)(=O)Nc1ccc2c(c1)Cc1ccccc1-2,i,-0.82
COC(=O)C1=CN(c2cccc(C)c2)C=C(C(=O)OC)C1c1cc(OC)c(O)c([N+](=O)[O-])c1,i,-0.39
CCOC(=O)C1(CCc2ccccc2)CCN(Cc2nccn2CC)CC1,i,-0.53
Cc1ccc(S(=O)(=O)N2CCc3cc4c(cc3C2C)OCCCO4)cc1 (configuration not stated),i,1.05
Cc1cc(C)n2cc(CSc3ccc(Br)cc3)nc2n1,i,-1.74
Cc1cccc(OCc2n[nH]c(=S)n2Cc2ccccc2)c1,i,0.54
CCOC(=O)c1c(NC(=O)CSc2cn(CC)c3ccccc23)sc2c1CCC2,-7.2*,1.15*
Clc1ccc(CSc2nnc(CNc3cccc(Cl)c3)o2)cc1,-5.7*,1.22*
COc1nc(/C=C/N(C)C)c([N+](=O)[O-])c(OC)n1,i,-0.57
COc1ccc2cc(C(=O)NCCc3ccccc3)[nH]c2c1,i,0.49
CCCn1c(SC(C(=O)Nc2cccc(OC)c2)c2ccccc2)nc2ccccc2c1=O (configuration not stated),i,-0.52
Cc1ccc(S(=O)(=O)N2CCC(C(=O)C3C(=O)CC(C)(C)CC3=O)CC2)cc1,i,-0.88
COCCCN1C(=O)c2[nH]nc(-c3ccccc3O)c2C1c1ccc(Cl)cc1 (configuration not stated),i,0.35
COC(=O)c1ccc(COC(=O)CNC(=O)c2cccs2)cc1,i,-0.17
CC(=O)c1ccc(C(=O)N2CCCC(CCC(=O)N(C)CCc3ccccn3)C2)s1 (configuration not stated),i,1.92
O=S(=O)(NCc1cc(-c2ccc(Cl)cc2)no1)c1ccc(Cl)cc1,i,-0.07
NC(=O)CSc1nnc(CNc2cccc(Cl)c2)n1CCc1ccccc1,i,-0.62
CN(CC(=O)O/N=C(\N)c1ccc([N+](=O)[O-])cc1)S(=O)(=O)c1ccc2ccccc2c1,i,0.26
CCOC(=O)Cn1c(=O)c2c(nc3n2CCCN3Cc2ccccc2)n(C)c1=O,i,1.16
O=C(COc1cccc(Cl)c1)NNC(=S)Nc1ccccc1,i,2.25
O=C(NC1CC2CCCC(C1)N2Cc1ccccc1)C1CCCCC1 (configuration not stated),i,0.56
Cc1ccc(-c2nc(-c3cccnc3)sc2CC(=O)Nc2ccc(C)c(Cl)c2)cc1,i,3.2

Exported with the structure last: 3 of the compounds above.
KCNQ2 block,KCNQ2 block baseline,Structure
i,-0.07,O=S(=O)(NCc1cc(-c2ccc(Cl)cc2)no1)c1ccc(Cl)cc1
i,0.56,O=C(NC1CC2CCCC(C1)N2Cc1ccccc1)C1CCCCC1 (configuration not stated)
i,1.92,CC(=O)c1ccc(C(=O)N2CCCC(CCC(=O)N(C)CCc3ccccn3)C2)s1 (configuration not stated)

The list continues.
Molecule,KCNQ2 block,KCNQ2 block baseline
COc1ccccc1S(=O)(=O)Cc1ccc(C(=O)N2CCCC2)o1,i,0.8
Cc1[nH]n(-c2ccccc2)c(=O)c1/C=N/NC(=O)COc1ccccc1[N+](=O)[O-],i,-1.42
CCOC(=O)c1cnc(SC)nc1Sc1ccccc1,i,0.24
CCN(CC)CCNC(=O)c1ccc(NC(=O)C2CC(=O)N(c3ccc4c(c3)OCCO4)C2)cc1 (configuration not stated),i,0.58
CCOC(=O)C1(CCC(C)C)CC(CSc2nc3ccccc3[nH]2)OC1=O (configuration not stated),i,0.91
Cc1cccc(/N=C/c2c(C)[nH]n(-c3ccccc3)c2=O)n1,i,2.14
Oc1ccc(Nc2nnc(-c3ccc(O)cc3)c3ccccc23)cc1,i,-0.98
CN1CCN(S(=O)(=O)c2ccc(N3CCN(c4ccc(O)cc4)CC3)c([N+](=O)[O-])c2)CC1,i,0.03

Fetched one by one from the list above (four):
Molecule,KCNQ2 block,KCNQ2 block baseline
CCOC(=O)C1(CCC(C)C)CC(CSc2nc3ccccc3[nH]2)OC1=O (configuration not stated),i,0.91
COc1ccccc1S(=O)(=O)Cc1ccc(C(=O)N2CCCC2)o1,i,0.8
CN1CCN(S(=O)(=O)c2ccc(N3CCN(c4ccc(O)cc4)CC3)c([N+](=O)[O-])c2)CC1,i,0.03
Oc1ccc(Nc2nnc(-c3ccc(O)cc3)c3ccccc23)cc1,i,-0.98

Following part:
Molecule,KCNQ2 block,KCNQ2 block baseline
C[C@H](NC(=O)c1ccccc1)C(=O)N1CCN(c2ccccc2)CC1,i,0.91
COc1cccc(CNC(=O)CCC2CCCN(C(=O)c3cscn3)C2)c1 (configuration not stated),i,1.01
C[C@H](N)c1nnc(SCc2c(Cl)cccc2Cl)o1,i,-0.62
COc1ccc(N2CCN(C(=O)CN(CCc3ccccc3)S(C)(=O)=O)CC2)cc1,i,0.4
COc1ccnc(Oc2ccc(F)cc2)c1C(=O)N/C=N/OCc1ccc(F)cc1,i,-1.89
CCOC(=O)c1nn(-c2cc(C(=O)OC)cc(C(=O)OC)c2)cc1O,i,0.79
O=C(O)c1nn(CCOc2ccc(Cl)cc2Cl)c(=O)c2ccccc12,i,2.54
CNc1nc(-c2ccc([N+](=O)[O-])cc2)cs1,i,2.36
CCNC(=S)N1CCN(CCNC2=CC(=O)CC(C)(C)C2)CC1,i,0.51
Cc1ccc2sc(N(CCCN(C)C)C(=O)c3ccc(S(=O)(=O)N(C)C4CCCCC4)cc3)nc2c1C,i,0.04
COc1cc(/C=N/NC(=O)CSc2cc(C)c(Br)cc2C)ccc1O,i,-0.1
COCC(=O)Oc1c(Sc2ccccc2[N+](=O)[O-])c(C)nn1C(C)(C)C,i,-0.32
COc1ccc(NC(=O)C2C3C=CC4(O3)C2C(=O)N(CCN2CCCCC2C)C4C(=O)NC2CCCCC2)cc1 (configuration not stated),i,0.14
O=S(=O)(Nc1ccccc1Cl)c1cc(NC(=S)NCCN2CCOCC2)ccc1Cl,i,0.4
COc1ccccc1CNC(=O)CCn1c(=O)oc2ccccc21,i,0.79
COc1ccc(OCc2nnc3n2N=C(c2ccc(OC)cc2)CS3)cc1,i,-0.89
C=CCn1c(-c2cccc(OC)c2OC)n[nH]c1=S,i,0.77
COc1ccc(NC(=O)c2cc(-c3ccccc3Cl)no2)cc1,i,0.91
CC1(C)Cc2nc3oc4c(=O)n(CC(=O)Nc5cccc(Cl)c5)cnc4c3cc2CO1,i,-0.65
O=c1cc(C(F)(F)F)nc(-n2[nH]c3c(c2=O)CCCC3)[nH]1,i,0.17
Cc1c(C)c2ccc(OCC(=O)N(C)C)c(C)c2oc1=O,i,-1.31
N#CCCN(C(=O)CCl)c1cccc(Cl)c1,i,0.46
CC(=O)CC(c1ccc([N+](=O)[O-])cc1)c1c(O)c2ccccc2oc1=O (configuration not stated),i,-1.47
CCN(CC(=O)NCc1ccc(F)cc1)C(=O)/C=C/c1cc(OC)ccc1OC,i,-0.04
COc1ccc(Cl)cc1NC(=O)NCC1CCN(Cc2ccccc2F)CC1,i,0.11
CCOC(=O)C1CCN(c2c(NC3CCCCCCC3)c(=O)c2=O)CC1,i,-1.97
c1csc(-c2nc3c4ccccc4c4ccccc4c3[nH]2)c1,i,1.94
Cc1cccc(NS(=O)(=O)c2ccc(C(=O)N3CCCCCC3)cc2)c1C,i,-0.6
C=CCc1cc(C(=O)N2CCCCC2)ccc1O,i,2.04
CCc1cccc(NC(=S)N(CCOC)C2CCN(C(C)=O)CC2)c1,i,0.07
O=C(N[C@@H](Cc1ccccc1)C(=O)Nc1ccc(F)cc1)C1CCNCC1,i,2.21
O=C(Nc1cccc(C(F)(F)F)c1)c1ccc(-n2cncn2)nc1,i,0.01
Cc1ccccc1OCCNc1cc(N2CC(C)NC(C)C2)ccc1[N+](=O)[O-] (configuration not stated),i,0.14
Cc1[nH]n(-c2ccccc2)c(=O)c1C=Nc1ccc(S(N)(=O)=O)cc1,i,-1.84
CC(=O)Cn1ncc(N2CCOCC2)c(Cl)c1=O,i,-1.13
O=C(Nc1c(-c2ccccc2)nc2ccc(Cl)cn12)c1cccs1,i,-1.31
Cc1cc(C(=O)Nc2ccc(Cl)cc2)c2ccccc2n1,i,0.3
O=[N+]([O-])c1cc(Cl)cc(/C=N\Nc2ccccn2)c1O,i,-0.67
CCCOc1ccc(NC(=O)OC2CCN(C)CC2)cc1,i,1.12
CCc1ccc(NC(=O)CSc2ccc(-c3ccccn3)nn2)cc1,i,0.81
CC(=O)c1ccc(OCC(O)CN2CCN(CCO)CC2)cc1 (configuration not stated),i,0.35
Clc1ccc(-c2nnc(-c3ccccc3)nc2-c2c[nH]c3ccccc23)cc1,i,0.93
CN1CCN(C(=O)/C(=C/c2ccccc2F)NC(=O)c2ccccc2)CC1,i,-0.22
NC(=O)COC(=O)c1ccc(C(=O)C(=O)c2ccccc2)cc1,i,1.78
N#Cc1ccc(CSCC(=O)NN=C2CCCC2)cc1,i,0.16
O=C(NCc1ccccc1Cl)C(=O)c1cn(CC(=O)N2CCOCC2)c2ccccc12,i,0.92
COc1ccc(Oc2c(C)oc3c(CN4CCOCC4)c(O)ccc3c2=O)cc1,i,2.9
CSCCC(=O)N1CCCC(CO)(CCCc2ccccc2)C1 (configuration not stated),i,1.04
Cc1cc(OC(=O)c2cccc([N+](=O)[O-])c2)c(C)cc1CN1CCOCC1,i,1
O=C(Cc1c(Cl)cccc1Cl)OCC(=O)N1CCN(C(=O)c2ccco2)CC1,i,-1.58
CSc1ccccc1Sc1cc(C(=O)O)c2ccccc2n1,i,0.43
O=c1c2ccccc2n(Cc2ccc(Cl)cc2)c(=O)n1Cc1ccco1,i,0.62
Cc1cc(Cl)ccc1OCC(=O)NCCCCc1ccccc1,-6.32*,1.24*
O=C(Cn1c2ccccc2c(=O)c2ccccc21)N/N=C/c1cc([N+](=O)[O-])ccc1N1CCCCCC1,i,-0.27
CCOCCCNC(=O)c1[nH]c(C)c(C(C)=O)c1C,i,1.54
Cc1cc(C)n(-c2c(C)[nH]c3ccccc23)n1,i,-0.23

Further records
Molecule,KCNQ2 block,KCNQ2 block baseline
N#Cc1c(N)nc2c(c1-c1ccncc1)CCCCCC2,i,0.12
COc1ccc(S(=O)(=O)N2CCC(C(=O)NC3CC3)CC2)cc1C,i,2.48
COc1ccc(-c2c(C)n([O-])c3c([n+]2=O)CCC3)cc1OC,i,0.53
CCOc1ccc(CCNC(=O)c2nnc(CS(=O)(=O)c3ccccc3)o2)cc1OCC,i,-0.72
CC(NC(=O)/C=C/c1ccco1)c1nc2ccccc2n1Cc1cccc(Cl)c1 (configuration not stated),i,-0.19
c1ccc(CCNc2nc3ccccc3s2)cc1,i,-0.04
C[C@H](NC(=O)[C@@H]1Cc2ccccc2CN1)C(=O)Nc1ccc2c(c1)OCCO2,i,0.54
COc1cc(OC)c2c(N)c(C#N)c(C(F)(F)C(F)(F)F)nc2c1,i,-2.47
CC(C)C(c1nnnn1C1CCCC1)N1CCOCC1 (configuration not stated),i,-0.21
